AF4-AF9 inh – inhibitors of AF4 peptide binding to AF9, primary screen, biochemical, AlphaScreen, biotin-AF4 peptide, FLAG-AF9, single point; inhibition, % at 10 µM; actives 0.47% (n = 350,000); AID 651704, 2012;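 active = every replicate reaching a set inhibition limit, whatever the replicate mean, cut at about 25% in these data; inconclusive = mean inhibition reaches that limit but some replicates miss it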;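 note: 0% = plate neutral control median and 100% = total signal loss; the record names both 10 and 1 µM as test concentration; the first replicate is given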
Target sequence (P42568 whole entry, looked up): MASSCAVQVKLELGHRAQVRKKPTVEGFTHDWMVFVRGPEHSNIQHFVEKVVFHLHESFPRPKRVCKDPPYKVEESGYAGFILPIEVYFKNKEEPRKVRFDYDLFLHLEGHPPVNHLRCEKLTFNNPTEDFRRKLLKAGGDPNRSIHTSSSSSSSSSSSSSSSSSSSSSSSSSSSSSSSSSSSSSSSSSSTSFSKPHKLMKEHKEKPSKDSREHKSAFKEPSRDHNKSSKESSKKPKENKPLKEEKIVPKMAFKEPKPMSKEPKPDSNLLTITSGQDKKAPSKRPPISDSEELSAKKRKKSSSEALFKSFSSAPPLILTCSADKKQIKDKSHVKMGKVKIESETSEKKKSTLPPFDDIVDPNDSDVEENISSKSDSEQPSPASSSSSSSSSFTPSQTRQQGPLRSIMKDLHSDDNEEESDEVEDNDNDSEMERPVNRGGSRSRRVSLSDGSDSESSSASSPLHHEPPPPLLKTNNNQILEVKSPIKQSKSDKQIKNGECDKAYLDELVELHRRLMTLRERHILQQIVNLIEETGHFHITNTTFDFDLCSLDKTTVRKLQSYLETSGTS
The depositor's hits bear a star; ? = inconclusive; & = joins results of further samples. Not all compounds are listed; rates above refer to the full screens.

Molecule | AF4-AF9 inh
CNC(=O)C[C@H]1CC[C@@H]2[C@@H](COc3ccc(NC(=O)Nc4ccccc4F)cc3C(=O)N2C)O1 | -1.1
O=C(c1ccccc1F)N1CC[C@@H]2[C@H]1c1cc(C#Cc3ccccc3F)ccc1N[C@@H]2CO | -2.3
C[C@@H]1CN([C@H](C)CO)C(=O)c2ccccc2-c2ccccc2CO[C@@H]1CN(C)Cc1cccc(O)c1 | -0.5
C[C@H]1CN([C@@H](C)CO)C(=O)c2cc(C3=CCCC3)cnc2O[C@@H]1CN(C)Cc1ccccn1 | -8.4
C[C@@H]1CN([C@@H](C)CO)C(=O)c2cccc(NS(=O)(=O)c3ccc(Cl)cc3)c2O[C@@H]1CN(C)C | -1.9
C[C@@H]1CN([C@H](C)CO)C(=O)c2cc(Br)cnc2O[C@@H]1CN(C)C(=O)c1ccccc1F | 0.3
Cc1ccc(NS(=O)(=O)c2cccc(C(=O)NC3CCN(Cc4ccccc4)CC3)c2)c(C)c1 | 5.4
C[C@H](CO)N1C[C@H](C)[C@H](CN(C)S(=O)(=O)c2ccccc2)Oc2ncccc2C1=O | -5.5
C[C@@H]1CCCCO[C@@H](CN(C)C(=O)c2ccccc2)[C@@H](C)CN([C@H](C)CO)C(=O)c2cc(NS(=O)(=O)c3cn(C)cn3)ccc2O1 | -3.6
C[C@@H]1CCCCO[C@@H](CN(C)Cc2ccccc2)[C@@H](C)CN([C@H](C)CO)C(=O)c2cc(NS(=O)(=O)c3ccc(Cl)cc3)ccc2O1 | 0.6
Cc1ccc(S(=O)(=O)Nc2ccc3c(c2)C(=O)N([C@H](C)CO)C[C@@H](C)[C@@H](CN(C)S(=O)(=O)c2cccs2)O3)cc1 | 0.1
COC(=O)[C@]12CCCCC=C1N(Cc1ccc(Cl)cc1Cl)C(=O)[C@H](CC(=O)NCCCN1CCCC1=O)C2 | -5.4

Three compounds already listed, ordered by their value in AF4-AF9 inh, highest first.
Molecule | AF4-AF9 inh
C[C@@H]1CCCCO[C@@H](CN(C)Cc2ccccc2)[C@@H](C)CN([C@H](C)CO)C(=O)c2cc(NS(=O)(=O)c3ccc(Cl)cc3)ccc2O1 | 0.6
Cc1ccc(S(=O)(=O)Nc2ccc3c(c2)C(=O)N([C@H](C)CO)C[C@@H](C)[C@@H](CN(C)S(=O)(=O)c2cccs2)O3)cc1 | 0.1
C[C@@H]1CN([C@@H](C)CO)C(=O)c2cccc(NS(=O)(=O)c3ccc(Cl)cc3)c2O[C@@H]1CN(C)C | -1.9

New compounds follow:
Molecule | AF4-AF9 inh
CCS(=O)(=O)N1CC2(CN(C)[C@H](CO)c3c2c2ccc(OC)cc2n3C)C1 | -3.6
C[C@@H]1CN([C@H](C)CO)C(=O)c2cccc(NC(=O)Nc3ccccc3)c2O[C@H]1CN(C)CC1CC1 | -2.5
C[C@@H]1CN([C@H](C)CO)C(=O)c2cccc(NC(=O)NC3CCCCC3)c2O[C@H]1CN(C)Cc1ccncc1 | -1.9
CO[C@H]1CN(C)C(=O)c2ccc(NS(C)(=O)=O)cc2OC[C@@H](C)N(CC2CCOCC2)C[C@@H]1C | -2.1
COc1cc2c(cc1OC)C(c1ccccc1)N(Cc1ccc(S(=O)(=O)NC(=O)c3ccco3)cc1)CC2 (stereo not given) | 1.7
COC(=O)[C@@H](Cc1ccccc1)NC(=O)[C@H]1O[C@@H](n2cnc3c(N)ncnc32)[C@H](O)[C@@H]1O | -0.2
CN(C)C(=O)C[C@@H]1CC[C@H]2[C@@H](COc3ccc(NC(=O)c4cnccn4)cc3C(=O)N2C)O1 | 0.3
CC(=O)N(C)C[C@@H]1Oc2ncc(C3=CCCC3)cc2C(=O)N([C@@H](C)CO)C[C@H]1C | -4.1
C[C@@H]1CN([C@H](C)CO)C(=O)c2cc(C#Cc3cccnc3)cnc2O[C@@H]1CN(C)Cc1ccccc1 | -1.9
CC(=O)Nc1ccc2c(c1)C(=O)N(C)[C@H]1CC[C@H](CC(=O)Nc3cccc(F)c3)O[C@@H]1CO2 | -8.0
C[C@H]1CN([C@@H](C)CO)C(=O)c2cc(-c3ccc(F)cc3)cnc2O[C@@H]1CN(C)Cc1cccnc1 | -11
Cc1cccc(C)c1C(O)c1ncc(-c2ccc(Cl)cc2)[nH]1 (stereo not given) | 7.9
Cc1ccc(S(=O)(=O)Nc2ccc3c(c2)CC(=O)N([C@H](C)CO)C[C@@H](C)[C@@H](CN(C)C(=O)NC(C)C)O3)cc1 | -0.7
CC(C)CC#Cc1cnc2c(c1)C(=O)N([C@H](C)CO)C[C@@H](C)[C@H](CN(C)C(=O)Cc1cccnc1)O2 | -4.5
O=C(C1CC1)N1CC(=O)N2[C@H](CO)[C@@H](c3ccc(C#Cc4cccc(F)c4)cc3)[C@H]2C1 | 4.3
COC(=O)[C@]12C[C@H](CC(=O)NCc3cccc(C(F)(F)F)c3)C(=O)N(CCC3=CCCCC3)C1=C[C@H](C(C)(C)C)O[C@@H]2C | -11
COc1ccc(NC(=O)Nc2ccc3c(c2)C(=O)N([C@@H](C)CO)C[C@@H](C)[C@H](CN(C)C(=O)NC(C)C)O3)cc1 | -0.7
COc1ccc(NC(=O)N(C)C[C@H]2Oc3ccc(NS(=O)(=O)c4ccc(OC)cc4)cc3CC(=O)N([C@H](C)CO)C[C@@H]2C)cc1 | 0.2
O=C(CC1CC1)N1CC[C@@H]2[C@H]1c1cc(-c3ccccc3)ccc1N[C@@H]2CO | 0.3
Cc1noc(C)c1S(=O)(=O)N(C)C[C@H]1Oc2ccc(NS(=O)(=O)c3cn(C)cn3)cc2C(=O)N([C@@H](C)CO)C[C@H]1C | 5.9
CC=Cc1ccc2n(c1=O)C[C@H]1[C@H](CO)[C@@H](C(=O)NCC)[C@@H]2N1C(C)=O (mixture of isomers) | -0.7
C[C@H](CO)N1C[C@H](C)[C@@H](CN(C)C(=O)Nc2ccc(F)cc2)Oc2ccc(NC(=O)CCC(F)(F)F)cc2CC1=O | -1.4
COc1cccc(C(=O)Nc2ccc3c(c2)C(=O)N(C)[C@H]2CC[C@H](CC(=O)NCCCN4CCOCC4)O[C@H]2CO3)c1 | -2.7
C[C@@H]1CN([C@@H](C)CO)C(=O)c2c(c3ccccc3n2C)-c2ccccc2CO[C@H]1CN(C)C(=O)CCC(F)(F)F | -1.5
CO[C@@H]1CN(C)C(=O)c2cc(NC(=O)c3ccc4c(c3)OCO4)ccc2OC[C@H](C)N(CC2CC2)C[C@H]1C | -0.1
C[C@@H]1CN([C@H](C)CO)C(=O)c2cccc(NC(=O)C3CC3)c2O[C@H]1CN(C)Cc1ccc(Cl)c(Cl)c1 | 6.1
CN(C)C(=O)C[C@@H]1CC[C@H]2[C@@H](COC[C@@H](O)CN2CC2CCCCC2)O1 | -8.7
O=C(C[C@H]1CC[C@H]2[C@@H](COC[C@@H](O)CN2Cc2cccc(Cl)c2)O1)N1CCCCC1 | -2.5
C[C@H]1CN([C@@H](C)CO)C(=O)Cc2cc(NC(=O)Nc3ccc(F)cc3)ccc2O[C@@H]1CN(C)S(=O)(=O)c1ccc(Cl)cc1 | 0.6
CC(C)NC(=O)N(C)C[C@@H]1Oc2cc(C#CC(C)(C)O)ccc2S(=O)(=O)N([C@H](C)CO)C[C@@H]1C | -3.0
CO[C@H](C(=O)N(C)C[C@H]1OCc2ccccc2-c2ccccc2C(=O)N([C@@H](C)CO)C[C@@H]1C)c1ccccc1 | -2.5
COc1ccc(NC(=O)N[C@H]2CC[C@@H](CCNC(=O)c3ccccc3F)O[C@@H]2CO)cc1 | -0.4
COc1ccc(S(=O)(=O)N2CC[C@H]3[C@H](CO)Nc4ccc(C#Cc5cccnc5)cc4[C@H]32)cc1 | 7.4
C[C@@H]1CN([C@@H](C)CO)C(=O)c2cccc(NS(=O)(=O)c3cccs3)c2O[C@H]1CN(C)Cc1ccccc1 | 1.1
CC(C)NC(=O)N(C)C[C@H]1OCCCC[C@@H](C)Oc2ccc(NS(=O)(=O)c3cccs3)cc2C(=O)N([C@H](C)CO)C[C@H]1C | -0.4
Cc1cccc(S(=O)(=O)N2C[C@@H](O)COC[C@H]3O[C@@H](CC(=O)Nc4ccccc4)CC[C@@H]32)c1 | -0.4

Two entries from above in another layout:
COc1ccc(S(=O)(=O)N2CC[C@H]3[C@H](CO)Nc4ccc(C#Cc5cccnc5)cc4[C@H]32)cc1
  AF4-AF9 inh = 7.4

C[C@@H]1CN([C@@H](C)CO)C(=O)c2cccc(NS(=O)(=O)c3cccs3)c2O[C@H]1CN(C)Cc1ccccc1
  AF4-AF9 inh = 1.1

Further entries.
Molecule | AF4-AF9 inh
COc1ccc(C(=O)N2C[C@H]3[C@@H](c4ccccc42)[C@@H](CO)N3Cc2ccccc2Cl)cc1 | 0.9
COc1cccc(-c2ccc([C@@H]3[C@@H](CO)N(C(=O)c4ccccn4)[C@H]3C#N)cc2)c1 | -0.7
CN1C(=O)c2cc(NC(=O)c3cccc(F)c3)ccc2OC[C@@H]2O[C@H](CC(=O)NCC3CCCCC3)CC[C@@H]21 | -2.0&-6.0
CCCC#Cc1cnc2c(c1)C(=O)N([C@H](C)CO)C[C@@H](C)[C@H](CN(C)C(=O)C1CC1)O2 | -1.1
C[C@@H]1CN([C@H](C)CO)C(=O)Cc2cc(NC(=O)NC3CCCCC3)ccc2O[C@H]1CN(C)Cc1ccc(C(=O)O)cc1 | -1.9
C[C@H]1CN([C@@H](C)CO)C(=O)CCCn2cc(nn2)CO[C@H]1CN(C)Cc1ccc(C(F)(F)F)cc1 | -4.2
COC(=O)[C@@]1(Cc2ccc(F)cc2)[C@H]2c3cc(C(=O)N4CCCC4)n(CCF)c3C[C@H]2CN1C(=O)c1ccccc1 | 4.2
COc1ccc2c3c(n(C)c2c1)[C@H](CO)N(C(=O)CC1CC1)CC31CCN(Cc2ccncc2)CC1 | 5.9
CCCC(O)C#Cc1cnc2c(c1)C(=O)N([C@H](C)CO)C[C@H](C)[C@H](CN(C)Cc1ccccc1)O2 (stereo not given in full) | -0.6
COc1cccc(S(=O)(=O)N[C@@H]2CC[C@@H](CCNC(=O)Cc3ccncc3)O[C@@H]2CO)c1 | -1.0
COc1ccc(C#Cc2cnc3c(c2)C(=O)N([C@H](C)CO)C[C@@H](C)[C@@H](CN(C)C(=O)CC2CC2)O3)cc1 | -2.5
CC1(C(=O)NS(=O)(=O)Cc2cccc(Cl)c2)CCN1C(=O)C1CCCCC1 (stereo not given) | 0.2
CN1C[C@@H](O)COC[C@H]2O[C@@H](CC(=O)N3CCN(c4ccccc4)CC3)CC[C@@H]21 | 2.2
C[C@@H]1CN([C@@H](C)CO)C(=O)c2cc(N(C)C)ccc2O[C@@H]1CN(C)Cc1ccc(C(=O)Nc2ccccc2N)cc1 | -11
COc1ccc(-c2sc3ccccc3c2-c2cc(OC)ccc2C=O)cc1 | -2.2
CC(=O)OC1CC2C(C)(C)C(=O)C=CC2(C)C2CCC3(C)C(c4ccoc4)OC(=O)C4OC43C12C (stereo not given) | 7.8
C[C@H]1CN([C@@H](C)CO)S(=O)(=O)c2ccc(/C=C/c3ccccc3)cc2O[C@@H]1CN(C)Cc1cccnc1 | 14
COCCN1C[C@@H](CO)O[C@@H](n2cnc3c(N4CCN(c5ccccc5)CC4)ncnc32)C1 | -4.4
O=C(C[C@H]1CC[C@@H]2[C@H](COC[C@@H](O)CN2C(=O)c2ccccn2)O1)NC1CCC1 | -1.2
CCS(=O)(=O)NCC[C@H]1CC[C@H](NS(=O)(=O)c2ccccc2C)[C@@H](CO)O1 | 0.2
COc1ccc(-c2ccc3c(c2)O[C@@H](CN(C)Cc2cccnc2)[C@@H](C)CN([C@@H](C)CO)S3(=O)=O)cc1 | -1.2
CCC(=O)Nc1ccc2c(c1)OC[C@@H](C)N(C(=O)C1CC1)C[C@H](C)[C@H](OC)CN(C)C2=O | -5.9
O=C(CCN1CCCCC1)N[C@@H]1CC[C@@H](CC(=O)N2CCC(Cc3ccccc3)CC2)O[C@H]1CO | 3.6
CCCNC(=O)C[C@H]1CC[C@@H]2[C@H](COc3ccc(NC(=O)c4cccc(OC)c4)cc3C(=O)N2C)O1 | 0.4
C[C@@H]1CN([C@@H](C)CO)C(=O)c2cc(NC(=O)Nc3cccc4ccccc34)ccc2O[C@H]1CN(C)Cc1ccccc1 | 8.2
Cc1cccc(S(=O)(=O)N2CC[C@@H]3[C@H]2c2cc(-c4ccccc4F)ccc2N(C)[C@H]3CO)c1 | -0.3
COc1ccc2c3c([nH]c2c1)[C@H](CO)N(Cc1nccs1)CC31CN(C(=O)C2CC2)C1 | ?
C[C@@H](NC(=O)C[C@@H]1C[C@H]2c3cc(NC(=O)c4ccc5c(c4)OCO5)ccc3O[C@H]2[C@H](CO)O1)c1ccccc1 | 1.8
CCNC(=O)C[C@@H]1CC[C@H]2[C@@H](COc3ccc(NC(=O)Nc4cccc(C)c4)cc3C(=O)N2C)O1 | 0.5
COc1ccc(S(=O)(=O)N[C@H]2C=C[C@H](CC(=O)N3CCC(Cc4ccccc4)CC3)O[C@H]2CO)cc1 | 1.0
CC(C)C#Cc1ccc2c(c1)O[C@@H](CN(C)CC1CCOCC1)[C@@H](C)CN([C@@H](C)CO)S2(=O)=O | 5.7
CC(C)C#Cc1ccc([C@H]2[C@H]3CN(C(=O)c4ccc5c(c4)OCO5)CC(=O)N3[C@H]2CO)cc1 | 4.8
CCC(=O)N(C)C[C@@H]1Oc2cc(C#CCC3CCCC3)ccc2S(=O)(=O)N([C@H](C)CO)C[C@@H]1C | -0.6
C[C@@H]1CN([C@@H](C)CO)C(=O)Cc2cc(NC(=O)Nc3ccc(F)cc3)ccc2O[C@@H]1CN(C)Cc1ccc(C(F)(F)F)cc1 | 2.6
O=C(NCC[C@@H]1CC[C@@H](NS(=O)(=O)c2cccc(F)c2)[C@H](CO)O1)C1CC1 | 1.6

Three entries out of the list, arranged by formula weight, smallest number first.
Molecule | AF4-AF9 inh
CC(C)C#Cc1ccc([C@H]2[C@H]3CN(C(=O)c4ccc5c(c4)OCO5)CC(=O)N3[C@H]2CO)cc1 | 4.8
Cc1cccc(S(=O)(=O)N2CC[C@@H]3[C@H]2c2cc(-c4ccccc4F)ccc2N(C)[C@H]3CO)c1 | -0.3
C[C@@H](NC(=O)C[C@@H]1C[C@H]2c3cc(NC(=O)c4ccc5c(c4)OCO5)ccc3O[C@H]2[C@H](CO)O1)c1ccccc1 | 1.8

Screening results: PubChem, Broad Institute
